Assay outcomes: PubChem, Center for Chemical Genomics, University of Michigan
CDC25B-CDK2 inh = human CDC25B-CDK2/CyclinA binding inhibition; HTRF CDC25B-CDK2/CyclinA binding, anti-His/anti-Flag; stronger effect = higher value; actives 0.72% (n = 94,000); z-score (test concentration not listed); P30305+P24941; AID 1259370;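 also: score is relative to mean and SD of negative controls; strong numbers were not always called active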
HIV TAR-Tat = HIV-1 TAR-Tat binding disruption | actives 0.6% (n = 100,000) | AID 1259389 | HIV-1 TAR RNA, Tat peptide displacement FRET; stronger effect = higher value | z-score (concentration not given with the values);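 also: score is relative to mean and SD of negative controls; some compounds called inactive have numbers as strong as hits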
* hit, by the source's call; x = not tested or not shown; & = joins results of further samples.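 The calls were made as follows: active = z-score from 3 up in half or more of its runs; inactive = the rest.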

SMILES | CDC25B-CDK2 inh | HIV TAR-Tat
Cc1ccc(C2CC(c3ccc(C(C)C)cc3)n3nnnc3N2)cc1C (stereo not drawn) | x | 0.93
CC1(C)OC(=O)CC1C(=O)N1CCOCC1 (stereo not drawn) | -0.75 | -0.18
CN(C(=O)C1CC(c2ccc(F)cc2)=NO1)c1ccccc1 (stereo not drawn) | -0.84 | 2.24
O=c1cc(CSc2nnc3c4ccccc4nc(-c4ccccc4)n23)nc2ccccn12 | x | -0.26
O=C(CSc1nc2ccccc2s1)N1CCc2ccccc21 | -3.19 | 0.33
O=C1CN(Cc2ccccc2)S(=O)(=O)c2ccccc2N1Cc1ccc(F)cc1 | x | 0.53
CCCN1CCN(C2C(=O)c3ccccc3N2C(C)=O)CC1 (stereo not drawn) | x | 0.32
CCc1nnc(NC(=O)c2cc(=O)n(C)c3c2c(=O)n(C)c(=O)n3C)s1 | x | 0.56
O=C(C1CCN(c2ccc(-c3cccs3)nn2)CC1)N1CCc2ccccc2C1 | x | 0.79
COc1ccc(OC)c(-c2noc(CSc3nc4ccc(C)cc4[nH]3)n2)c1 | 1.08 | -1.03
CCCCn1cc(S(=O)(=O)c2ccc(F)cc2)c(=O)c2cc(CC)ccc21 | -0.94 | 0.15
COC(=O)c1c(C)oc2ccc(OC(C)C(=O)OC)cc12 (stereo not drawn) | -2.14 | 0.34

Four entries picked at random from the list so far:
SMILES | CDC25B-CDK2 inh | HIV TAR-Tat
CN(C(=O)C1CC(c2ccc(F)cc2)=NO1)c1ccccc1 (stereo not drawn) | -0.84 | 2.24
CCCN1CCN(C2C(=O)c3ccccc3N2C(C)=O)CC1 (stereo not drawn) | x | 0.32
Cc1ccc(C2CC(c3ccc(C(C)C)cc3)n3nnnc3N2)cc1C (stereo not drawn) | x | 0.93
COC(=O)c1c(C)oc2ccc(OC(C)C(=O)OC)cc12 (stereo not drawn) | -2.14 | 0.34

(list continues)
SMILES | CDC25B-CDK2 inh | HIV TAR-Tat
CCOC(=O)c1c(C)oc2ccc(NS(=O)(=O)c3ccc(Br)cc3)cc12 | -1.6 | x
O=C(Nc1ccc2c(c1)OCO2)c1cnn(-c2ccc(F)cc2F)c1C1CCNCC1 | x | 1.83
Cc1ccc(O)c(-c2cc(C(F)(F)C(F)F)on2)c1 | -1.19 | 1.3
Nc1nc(N2CCN(Cc3ccccc3)CC2)nc(NCc2ccco2)c1[N+](=O)[O-] | x | -0.17
C[n+]1ccc(CCc2cc[n+](C)cc2)cc1 | -3.55 | x
CCc1c(C#N)c(N)nc(SCC(=O)c2cc3ccccc3oc2=O)c1C#N | 3.26 | x
CCOc1cc2c(cc1OCC)C1CC(=O)N(c3ccc(OC)cc3)C(=O)N1CC2 (stereo not drawn) | x | 1.52
Cc1ccc(C2=NS(=O)(=O)N(C)C(C(=O)N3CCC(C)CC3)=C2)cc1 | -2.21 | 2.96
Nc1ccccc1Sc1nc(Cl)nn1Cc1ccccc1 | -3.02 | 1.89
O=C(Nc1nnc(SCc2cc(=O)c3cccc(F)c3[nH]2)s1)C1CCCCC1 | x | 1.18
Cc1ccc(NS(=O)(=O)c2ccc(-c3cc(C)no3)s2)c(Cl)c1 | x | 0.21
CC(C)(C)C1CCc2nc(NC(=O)COc3ccc(F)cc3)sc2C1 (stereo not drawn) | -2.44 | -0.85
Cc1ccc(NS(=O)(=O)c2ccc3[nH]c4c(c3c2)CCCC4)c(C)c1 | x | -2.43
CCOC(=O)c1c(N2C(=O)C3CC=C(Cl)CC3C2=O)sc2c1CCCC2 (stereo not drawn) | -1.5 | x
c1ccc(-c2c(-c3ccccc3)c3ccccn3c2CN2CCOCC2)cc1 | 0.16 | -2.53
O=C1c2nccnc2C(=O)N1c1cccc(Cl)c1 | -2.07 | 0.46
N#C/C(=C\c1cccc(OCc2ccccc2)c1)c1ccccn1 | -1.33 | x
Cc1ccc2cc3cc(C(=O)N4CCC5(CC4)OCCO5)sc3nc2c1 | -1.46 | x
N#CC1CN(Cc2cccs2)CN(Cc2cccs2)C1 | -1.13 | x
CC(C)Cc1ccc(C(C)C(=O)NO)cc1 (stereo not drawn) | x | 3.04
Cn1c2ccccc2c2c(C(=O)N3CCCC3)cn(C3CCCC3)c(=O)c21 | -1.95 | x
CC1=C(c2cccc(Br)c2)S(=O)(=O)N=C1N1CCCC1 | -1.02 | -0.03
O=S(=O)(Nc1ccc(F)cc1)c1cc(-c2noc(C3CC3)n2)cs1 | x | -1.02
Cc1ccc(N2C(=O)c3[nH]nc(-c4ccc(Cl)cc4)c3C2c2ccco2)cc1 (stereo not drawn) | -1.42 | x
CCOCCOC(=O)C1=C(C)NC2=C(C(=O)C(C(=O)OC)C(C)C2)C1c1ccc(C)o1 (stereo not drawn) | -1 | 2.84
Cc1cc(=O)n2[nH]c(CNc3ccccc3)nc2n1 | -1.37 | 0.24
O=C1CCCN2N=C(SCC(=O)Nc3cccc(Cl)c3)SC2=N1 | 0.19 | x
CCc1cc2c(cc3c(=O)n(CC(=O)NCCC4=CCCCC4)ncn32)s1 | -0.93 | 0.6
CCN1CCN(c2ncc3c(n2)CCN(Cc2cccc(Br)c2)C3)CC1 | x | 0.39
CCOC(=O)C1=C(C)NC2=C(C(=O)C(C(=O)OC)C(C)C2)C1c1ccc2c(c1)OCO2 (stereo not drawn) | -0.85 | -0.91
Cn1ccc2cc(S(=O)(=O)N3CCCC(C(=O)NCCc4ccco4)C3)ccc21 (stereo not drawn) | x | 0.25
COCc1ccc2c(c1)c1c3n2CCNC3CCC1 (stereo not drawn) | -1.17 | x
CC(C)OCc1cc(CN2CCN(C)CC2)c(O)c2ncccc12 | -3.38 | 1.73
CC1(C)CC(=O)C2=C(C1)NC1=C(C(=O)CC(C)(C)C1)C2c1ccccc1F | -0.23 | 2.05
C=CCOc1ccc(C2c3c(oc4ccccc4c3=O)C(=O)N2c2nc(C)c(C)s2)cc1OCC (stereo not drawn) | -0.58 | -4.59
COCCN[C@H]1CS(=O)(=O)C[C@@H]1S(=O)(=O)c1cccs1 | -0.44 | -1.9
c1ccc2c(c1)nnc1ccccc12 | -0.84 | x
Cc1nnc(NCCc2ccc(Cl)cc2)c2c1nnn2Cc1ccc(F)cc1 | 0.26 | 0.75
O=C1c2ccccc2C(Nc2ccc(Br)cc2F)N1Cc1ccccc1 (stereo not drawn) | 0.43 | 0.76
CCCCOC(=O)C1=C(C)NC2=C(C(=O)CC(C)(C)C2)C1c1ccccc1Cl (stereo not drawn) | 0.15 | 0.76
C=C(C)c1cccc(C(C)(C)NC(=O)N2CCN(C/C=C/c3ccccc3)CC2)c1 | 1.87 | 0.65
O=c1[nH]cnc2nn(-c3ccccc3)cc12 | 1.23 | 4.02*
CCN(CC)CCNC(=O)Cn1nc(C)n2c(cc3cc(C)ccc32)c1=O | -1.97 | 3.38
CC1=NN(C(=O)c2ccco2)C(O)(C(F)(F)F)C1 (stereo not drawn) | 0.45 | x
COc1ccc2ccccc2c1C1CC(=O)N2CN(c3ccc(F)cc3)CSC2=C1C#N (stereo not drawn) | 2.64 | 0.3
O=S(=O)(NCc1nnnn1-c1ccc(Cl)cc1)c1ccccc1 | x | 0.83
O=c1ccc(Oc2nc(N3CCOCC3)nc(N3CCOCC3)n2)nn1-c1ccccc1 | 1.46 | x
CCOC(=O)C1=C(N)Oc2c(oc(CO)cc2=O)C1c1ccccc1 (stereo not drawn) | -0.63 | x

One compound at a time, from the list above. Order of values: CDC25B-CDK2 inh	HIV TAR-Tat
Profile of CCOC(=O)C1=C(N)Oc2c(oc(CO)cc2=O)C1c1ccccc1 (stereo not drawn) : -0.63	x
Profile of O=S(=O)(NCc1nnnn1-c1ccc(Cl)cc1)c1ccccc1 : x	0.83
Profile of O=c1[nH]cnc2nn(-c3ccccc3)cc12 : 1.23	4.02*
Profile of CCN(CC)CCNC(=O)Cn1nc(C)n2c(cc3cc(C)ccc32)c1=O : -1.97	3.38

(cont.)
SMILES | CDC25B-CDK2 inh | HIV TAR-Tat
CCC1Sc2ccc(S(=O)(=O)CCC(=O)Nc3ccc(F)cc3)cc2NC1=O (stereo not drawn) | x | -0.11
O=S1(=O)C[C@H](NCCc2ccccc2)[C@@H](S(=O)(=O)c2ccccc2)C1 | -1.99 | -0.75
Nc1c(-c2nc(-c3ccc(Br)cc3)no2)nnn1-c1cccc(F)c1 | x | 0.33
CCOC(=O)c1cc(C)n(-c2cccc(F)c2C#N)n1 | -1.66 | x
COCCOC(=O)C1=C(C)N=C2SCCC(=O)N2C1c1cccc(F)c1 (stereo not drawn) | -0.58 | -0.01
Cc1c(C(=O)NCc2ccco2)oc2ccc(S(=O)(=O)N3CCCC3)cc12 | -0.08 | x
CCOc1ccccc1-c1nn2c(-c3ccccc3OC)nnc2s1 | -2.28 | -0.01
O=C(CSc1nc2c(cnn2-c2ccc(Cl)cc2)c(=O)[nH]1)NCC1CCCO1 (stereo not drawn) | x | 1.05
CC1CC(C)CN(C(=O)C2c3ccccc3Oc3ccccc32)C1 (stereo not drawn) | -1.36 | 0.2
Cc1ccc2ncc(C(=O)N3CCc4ccccc43)c(=O)n2c1 | -0.77 | 0.76
Cn1ccnc1SCC(=O)N1CCC(n2cccc2)CC1 | -1.33 | x
O=C(CSc1ccsc1[N+](=O)[O-])N1CCN(c2ccccc2F)CC1 | -1.84 | 2.07
O=C(Nc1ccc2nc3n(c(=O)c2c1)CCCCC3)c1cc2ccccc2[nH]1 | -1.24 | 0.45
O=C(O)c1nc2nc(-c3cccs3)cc(C(F)(F)F)n2n1 | x | -0.28
CN(C)CCCN(C(=O)Cc1ccccc1)c1nc2ccc(Br)cc2s1 | x | 0.31
O=C1NC(c2ccco2)c2c(-c3ccccc3)n[nH]c21 (stereo not drawn) | x | 0.61
Cc1ccc(C(=O)c2oc3ccccc3c2NC(=O)c2nc(S(C)(=O)=O)ncc2Cl)cc1F | -1.8 | -0.03
Cc1ccc(C)c(N2CCN(C(=O)c3c(C)oc4nc(C)nc(N5CCOCC5)c34)CC2)c1 | x | 1.26
O=C(c1noc2c1CCCCC2)N1CCc2ccccc21 | x | 0.04
COC(=O)c1sccc1N1C(=O)Cn2cccc2C1C(=O)NC1CCC(C)CC1 (stereo not drawn) | x | 0.6
O=S(=O)(c1ccc2[nH]c3c(c2c1)CCCCC3)N1CCN(c2ccccc2)CC1 | x | 1.94
CCN1C(=O)C2(c3ccccc31)C(C(=O)Nc1cccc(F)c1)CC1CSCN12 (stereo not drawn) | x | 0.75
CC(C)c1ccc(-c2csc(NC(=O)C3C4CCC(C4)C3C(=O)O)n2)cc1 (stereo not drawn) | -0.98 | 0.73
Cn1cnc2c1c(=O)n(C/C=C/c1ccccc1)c(=O)n2C | 0.11 | x

Reprinted from the part before: 6 entries, followed by the next part.
SMILES | CDC25B-CDK2 inh | HIV TAR-Tat
O=C(c1noc2c1CCCCC2)N1CCc2ccccc21 | x | 0.04
COC(=O)c1sccc1N1C(=O)Cn2cccc2C1C(=O)NC1CCC(C)CC1 (stereo not drawn) | x | 0.6
O=S(=O)(c1ccc2[nH]c3c(c2c1)CCCCC3)N1CCN(c2ccccc2)CC1 | x | 1.94
CCN1C(=O)C2(c3ccccc31)C(C(=O)Nc1cccc(F)c1)CC1CSCN12 (stereo not drawn) | x | 0.75
CC(C)c1ccc(-c2csc(NC(=O)C3C4CCC(C4)C3C(=O)O)n2)cc1 (stereo not drawn) | -0.98 | 0.73
Cn1cnc2c1c(=O)n(C/C=C/c1ccccc1)c(=O)n2C | 0.11 | x
CSc1nnc2c(n1)OC(c1ccc(O)c(O)c1)Nc1ccccc1-2 (stereo not drawn) | 1.82 | -2.84
Cc1ccccc1NC1=NS(=O)(=O)c2ccccc21 | -0.52 | 0.89
NS(=O)(=O)c1ccc(NC(=O)COCC(=O)O)cc1 | -0.8 | x
Cc1nc(C)c(-c2ccn(C(=O)c3ccc(C(F)(F)F)cc3)n2)o1 | -1.3 | x
COc1ccc(-c2ccc(NS(=O)(=O)c3ccc(Cl)cc3)cc2)nn1 | x | 1.46
CC1CC(C)CN(CC2CCN(C(=O)Nc3ccc(F)c(Cl)c3)CC2)C1 (stereo not drawn) | x | 1.08
Cc1cn2c(=O)cc(CSc3nnc(N)s3)nc2s1 | -0.25 | -0.24
Cc1c(C(=O)Nc2ccc3nsnc3c2)oc2ccc(F)cc12 | -2.77 | 1.5
COc1ccccc1C(=O)Oc1ccc2c(=O)c(Oc3ccccc3Br)coc2c1 | -2.26 | 0.95
Cc1[nH]c2ccc(Cl)cc2c(=O)c1CN1CCCC1 | -1.51 | x
Cc1csc(-c2ccc(Oc3ccc(Cl)cc3)nc2)n1 | -1.79 | x
CCC(C)N(CCNC(=O)Cn1c(=O)c2cccn2c2cccnc21)C1CCCCC1 (stereo not drawn) | x | -0.03
CCCCCCCOC(=O)C1=C(C)Nc2nnnn2C1c1ccc(OC)cc1 (stereo not drawn) | 0.72 | 1.44
NC1=NNC(c2ccccc2)=CS1 | 2.6 | x
COc1ccc(Nc2nc(NC3CCCC3)nc3c2cnn3C)cc1 | x | 1.78
O=C1N(Cc2cccc(F)c2)c2ccccc2S(=O)(=O)N1c1ccc(F)cc1 | x | 0.83
O=C(NC1CC1)c1cc2c(s1)-c1ccccc1OC2 | -1.05 | x
CS(=O)(=O)CCC(C(=O)Nc1ccc(Cl)cc1)N1Cc2ccccc2C1=O (stereo not drawn) | x | 0.69
O=C(O)C1=CC(c2ccc(Br)cc2)n2nnnc2N1 (stereo not drawn) | x | 1.11
Cc1cccc(Nc2c(-c3ccc4c(c3)OCC(=O)N4)c(=O)c2=O)c1 | x | 0.19
O=C(CCSc1nnc(NC2=NS(=O)(=O)c3ccccc32)s1)Nc1ccccc1 | 4.64 | 1.62
NC1=NC(c2cccc(Br)c2)n2c(nc3ccccc32)N1 (stereo not drawn) | -0.32&0.8 | -0.42
CCn1c(C(=O)N2CCCC(C(=O)NCCCN3CCOCC3)C2)cc2sccc21 (stereo not drawn) | -2.07 | x

This is a random part of the collection; about 0.87% have a hit in one of these screens.
